Bioassay records (PubChem BioAssay)
gsp antagonist – qHTS for Antagonists of gsp, the Etiologic Mutation Responsible for Fibrous Dysplasia/McCune-Albright Syndrome: qHTS; gsp-mutant cells, cAMP HTRF, 30 min; control for the full effect not named in the record; Potency, µM (highest dose often 76.9 µM), for inactives: top-dose activity change, negative = inhibition, hits mostly inhibitors; 340,000 compounds, 0.4% hits; active = falling curve of any shape with a large fitted effect; inconclusive = falling curve, mostly with a smaller effect; inactive = flat or rising curve; cell line not stated here;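 further: intracellular cAMP measured with PDE inhibitor Ro 20-1724 present during compound exposure; potency means the concentration at half of the fitted maximal effect; on the % scale 0 is the no-effect control and ±100 the full control effect; nearly all actives have a fitted effect of over 65% in size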
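Cells in G418 medium, seeded 16-24 h, 37C; buffer exchange to DPBS + 1 mM CaCl2, 0.5 mM MgCl2, 0.05% BSA; cpds in DMSO + […] (300 uM stock), 30 min 37C; HTRF cAMP detection.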
gsp agonist – qHTS for Agonist of gsp, the Etiologic Mutation Responsible for Fibrous Dysplasia/McCune-Albright Syndrome: qHTS; gsp mutant cells, cAMP HTRF, 30 min; control for the full effect not named in the record; Potency, µM (titrated, usually from 76.9 µM), for inactives: at the top dose activation (cAMP increase), actives largely listed as activators; 340,000 compounds, 0.13% hits; active = well fitted activation curve with a large enough effect; inconclusive = small, poorly fitted or top-dose-only effect, or another doubt; inactive = no such curve, though single readings can be large or run the other way; cell line not stated here;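 further: phosphodiesterase inhibitor Ro 20-1724 added with compounds to block cAMP breakdown; potency means the concentration at half of the fitted maximal effect; nearly all actives have a fitted effect of over 60% in size; about a fifth of the inactives were tested at one dose only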
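Cells in DMEM/10% FBS with G418 were pretreated with compounds in DMSO plus […] (300 uM stock) for 30 min at 37C. cAMP was measured by HTRF (cAMP-d2 plus anti-cAMP antibody-K) after 30 min at room temperature.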
CtBP-E1A inh – qHTS Assay for Inhibitors of the CtBP/E1A Interaction; CtBP / adenovirus E1A interaction (AlphaScreen); AlphaScreen GST-E1A/His-CtBP binding, 1536-well; hits give low values; control for the full effect not named in the record; activity change, % (no concentration beside the values); AID 651724, 2012; 340,000 compounds, 0.49% hits; in the data active means activity change below about -65%; inconclusive means about -30% to -65%; inactive means above about -30%; further: on the % scale 0 is the no-effect control and ±100 the full control effect
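AlphaScreen with 125 nM GST-E1A and 125 nM His-CtBP (5X stocks) in Tris pH 8.0, 300 mM NaCl, BSA, Tween 20, TCEP. Compounds preincubated 2 h at 37 deg C, then glutathione donor/nickel acceptor beads added for 1 h at 37 deg C in dark.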
TRPV1 PAM – HTS Assay for Compounds that Act as Potentiators of the Vanilloid Receptor 1; TRPV1-expressing cells, Fluo-8 calcium influx, capsaicin EC20 potentiation; host cell line not named in the record; control for the full effect not named in the record; potentiation, % at 8.33 µM; 320,000 compounds, 0.02% hits; active means potentiation above 80%; inconclusive means 30% to 80%; inactive means below 30%; further: 0% is about no effect
Target sequence (Q8NER1 whole entry, looked up): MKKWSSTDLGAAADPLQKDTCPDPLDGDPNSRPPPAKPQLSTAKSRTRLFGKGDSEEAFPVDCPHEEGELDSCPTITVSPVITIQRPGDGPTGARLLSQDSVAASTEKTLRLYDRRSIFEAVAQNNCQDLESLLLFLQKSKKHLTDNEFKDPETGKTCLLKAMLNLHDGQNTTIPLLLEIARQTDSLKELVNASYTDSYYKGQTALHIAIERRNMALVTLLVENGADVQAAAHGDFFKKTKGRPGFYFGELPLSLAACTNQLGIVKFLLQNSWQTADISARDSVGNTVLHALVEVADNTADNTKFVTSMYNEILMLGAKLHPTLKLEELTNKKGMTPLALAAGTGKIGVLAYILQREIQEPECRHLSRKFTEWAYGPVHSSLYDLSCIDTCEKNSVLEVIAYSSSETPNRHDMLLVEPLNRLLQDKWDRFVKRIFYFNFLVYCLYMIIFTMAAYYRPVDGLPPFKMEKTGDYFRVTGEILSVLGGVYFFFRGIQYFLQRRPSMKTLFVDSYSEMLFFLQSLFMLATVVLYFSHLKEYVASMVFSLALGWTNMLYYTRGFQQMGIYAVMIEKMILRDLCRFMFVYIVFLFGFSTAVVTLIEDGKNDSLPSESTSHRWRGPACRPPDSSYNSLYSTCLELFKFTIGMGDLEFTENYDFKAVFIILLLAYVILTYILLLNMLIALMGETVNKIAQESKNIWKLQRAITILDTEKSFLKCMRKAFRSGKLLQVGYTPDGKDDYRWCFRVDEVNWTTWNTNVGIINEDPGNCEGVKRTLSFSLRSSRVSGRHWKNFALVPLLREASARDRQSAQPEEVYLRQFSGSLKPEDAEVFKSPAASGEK
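Fluo-8 calcium influx in TRPV1-expressing cells, kinetic read (ex 480/em 520 nm). Compound added and read 3 min for agonist activity, followed by capsaicin at EC20 final and 2 min further read for enhancement.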
Sfp inh – qHTS Assay for Inhibitors of Bacillus subtilis Sfp phosphopantetheinyl transferase (PPTase); Biochemical Sfp PPTase activity, qHTS; Potency, µM, inactives show max response, negative = inhibition, hits mostly inhibitors; 310,000 compounds, 3.5% hits; AID 1490, 2009; active means well fitted inhibition curve with a large enough effect; inconclusive means small, poorly fitted or top-dose-only effect, or another doubt; inactive means no such curve, though single readings can be large or run the other way;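 further: the enzyme is Sfp with the accession as filed and its product quenches rhodamine fluorescence; potency means the concentration at half of the fitted maximal effect; 0% = enzyme reaction without inhibitor and -100% = no enzyme wells; top concentration of the series not given in the record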
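After 15 min at room temperature with compound, 15 nM Sfp received 5 uM rhodamine-CoA plus 12.5 uM BHQ-2-ybbR (50 mM Hepes pH 7.6, 10 mM MgCl2). Rate came from the fluorescence difference over 30 min, ex 525/em 598 nm.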
ClpP mod – qHTS Assay for Activators of ClpP. ATP-dependent Clp protease proteolytic subunit (Bacillus subtilis (strain 168)), P80244. purified B. subtilis ClpP, FRET peptide cleavage, 20 min. Potency, µM (series often up to 57.5 µM), for inactives: at the highest dose activity change, negative = active. 340,000 compounds, 1.9% hits. AID 651965, 2013; active = well fitted falling curve with a large enough effect; inconclusive = small, poorly fitted or top-dose-only effect; inactive = no such curve, though single readings can be large or run the other way; further: potency means the concentration at half of the fitted maximal effect; the source files actives as falling curves though it sought activators and does not explain the sign; nearly all actives have a fitted effect of over 65% in size; many hits overshoot -100%
Target sequence (P80244 whole entry, looked up): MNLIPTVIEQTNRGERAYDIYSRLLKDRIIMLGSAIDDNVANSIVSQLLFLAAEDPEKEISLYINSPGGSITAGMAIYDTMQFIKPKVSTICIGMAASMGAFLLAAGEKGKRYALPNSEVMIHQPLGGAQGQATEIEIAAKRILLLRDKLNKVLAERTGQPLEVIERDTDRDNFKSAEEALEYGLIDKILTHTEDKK
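FRET quenching reversal measured ClpP activation: 10 microg/mL B. subtilis ClpP at pH 8 with the FRET-FV decapeptide, read at 430 nm after 320 nm excitation. The 20-min minus 0-min signal was scaled between DMSO/no-enzyme wells and ADEP (5.8 microM final).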
Menin-MLL FL inh – qHTS Assay for Inhibitors Targeting the Menin-MLL Interaction in MLL Related Leukemias: Competition With Fluorescein Labeled MLL-derived Peptide; Fluorescence polarization, fluorescein-MLL peptide displacement from menin; FP activity change, % at 61.4 µM; 290,000 tested, under 10 active; inconclusive = falling polarisation curve, or a change in total fluorescence; inactive = total fluorescence flat and polarisation flat or rising; no compound was filed as active; the % refers to the polarisation; negative = inhibition;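 further: % of control where 0% means no effect; inhibitors lower the polarisation; unlabelled MLL peptide was the positive control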
* hit, by the source's call; ? = inconclusive; / = not tested or not shown; [ ] = dose if it differs, or a comment.

entry	structure	Sfp inh	gsp agonist	Menin-MLL FL inh	gsp antagonist
1	CCC(CO)Oc1cc(NCc2ccccc2)c2ncn(C(C)C)c2c1 (stereo not drawn)	/	23%	/	11%
2	Cc1cc(C)cc(NC(=O)CCn2cnc3cc(C)c(C)cc32)c1	15%	-10%[15.4 µM]	-5.0	0%
3	COc1ccc(/C=C(\NC(=O)c2ccc(OC)cc2)C(=O)N2CCCCC2)cc1	20%	0%	-5.4	-22%
4	CCN(CC)CCN(C(=O)c1ccc2c(c1)CCCC2)c1nc2c(C)cccc2s1	-18%	-8%	-4.4	-6%
5	COc1ccccc1-n1cnnc1SCC(=O)N1CCN(S(=O)(=O)c2ccccc2)CC1	5%	-3%	2.4	-32%
6	COc1cccc(CNC(=O)[C@@H](C)N2C(=O)N3CCc4c([nH]c5ccc(OC)cc45)C3(C)C2=O)c1 (stereo partly drawn)	11%	/	0.3	-21%
7	COC(=O)c1ccc(COC(=O)CNC(=O)c2ccc(C)s2)cc1	/	17%	/	4%
8	CCN1CCN(c2nc(Nc3ccccc3)nc(N)c2[N+](=O)[O-])CC1	2%	-57%[inhibitor]	2.4	9%
9	O=C(OCc1ccccc1)C1CCN(S(=O)(=O)c2cccs2)CC1	/	-20%	/	/
10	CCCOc1ccc(-c2nc(C#N)c(NCC3CCCO3)o2)cc1 (stereo not drawn)	-10%	-7%	2.8	-24%

entry	ClpP mod	CtBP-E1A inh	TRPV1 PAM
1	-1.8%	-9	/
2	/	/	15
3	-3.8%	-8	-3
4	-8.7%	-3	-5
5	-0.8%	5	1
6	2.1%	-14	9
7	0.8%	/	-5
8	0.2%	4	-12
9	-0.2%	7	/
10	84%	-5	-1

Profiles as entered above:
Record of CCCOc1ccc(-c2nc(C#N)c(NCC3CCCO3)o2)cc1 (stereo not drawn) : Sfp inh: -10%; gsp agonist: -7%; Menin-MLL FL inh: 2.8; gsp antagonist: -24%; ClpP mod: 84%; CtBP-E1A inh: -5; TRPV1 PAM: -1
Record of Cc1cc(C)cc(NC(=O)CCn2cnc3cc(C)c(C)cc32)c1 : Sfp inh: 15%; gsp agonist: -10%[15.4 µM]; Menin-MLL FL inh: -5.0; gsp antagonist: 0%; ClpP mod: /; CtBP-E1A inh: /; TRPV1 PAM: 15

Additional records:
entry	structure	Sfp inh	gsp agonist	Menin-MLL FL inh	gsp antagonist
11	COc1ccc(NC(=O)CN(C)C(=O)c2ccc3ccccc3n2)cc1	/	-4%[15.4 µM]	/	1%
12	O=S(=O)(NCc1ccc2c(c1)OCO2)c1ccc2c(c1)oc1ccccc12	-23%	-43%[inhibitor]	-1.3	-11%
13	CC1(c2nnc(-c3ccc(F)cc3)o2)CC(c2ccc(F)cc2)=NO1 (stereo not drawn)	10%	?	3.1	-1%
14	O=c1ccnc(SCc2ccccc2Cl)[nH]1	-1%	8%	4.6	1%
15	COc1ccc(C#Cc2cnc3c(c2)C(=O)N([C@@H](C)CO)C[C@@H](C)[C@@H](CN(C)CC2CCOCC2)O3)cc1	/	-62%[inhibitor]	/	/
16	COc1ccc(-c2ccc3c(c2)S(=O)(=O)c2cccc(C(=O)NC[C@@H]4CCCO4)c2C3=O)cc1OC	/	/	/	-10%
17	Cc1ccc(C(=O)N2CCC(C)CC2)cc1C	14%	-45%	-0.9	4%
18	Nc1ccc(C(O)(C(F)(F)F)C(F)(F)F)cc1	6%	18%	1.0	7%
19	O=C(C[n+]1cc[nH]c1)c1ccc(Cl)cc1	8%	-1%[15.4 µM]	-0.4	0%
20	COc1cc2c(cc1NC(=O)COC(=O)C(CCSC)NC(=O)c1ccccc1Cl)oc1ccccc12 (stereo not drawn)	-7%	27%[15.4 µM]	2.3	?

entry	ClpP mod	CtBP-E1A inh	TRPV1 PAM
11	-1.0%	-3	/
12	-3.7%	7	-15
13	-0.9%	/	-29
14	-2.3%	-3	3
15	-20%	4	/
16	-0.8%	-15	0
17	-0.4%	-6	14
18	-1.4%	-3	?
19	0.7%	14	-9
20	25µM*	8	11

(more compounds)
entry	structure	Sfp inh	gsp agonist	Menin-MLL FL inh	gsp antagonist
21	Cc1ccc2oc(=S)n(C)c2c1	10%	5%	-0.6	1%
22	O=C(c1cccc([N+](=O)[O-])c1)N1CCCC(C(=O)N2CCc3ccccc3C2)C1 (stereo not drawn)	-2%	-1%	-1.9	5%
23	N#CC1=C(N)Oc2ccc3ccc(O)cc3c2C1c1cccnc1 (stereo not drawn)	-4%	-45%	8.2	5%
24	COCc1ccc(C(=O)N(C)CC2CCCN(CCc3ccccc3F)C2)o1 (stereo not drawn)	8%	12%	0.6	10%
25	CCCCc1c(O)nc2sccn2c1=O	-26%	3%	-1.3	-7%
26	Cc1nc(C)c(C(=O)OCC(=O)NCc2ccccc2)s1	/	-21%	/	2%
27	C=CCNC(=S)N1CC2(C)CN(C(=S)NCC=C)CC(C)(C1)C2=O	24%	17%	0.3	12%
28	CCOC(=O)Cc1csc(N/N=C\c2ccccc2OC)n1	-5%	-16%	-3.3	-9%
29	Cc1nc2ccc(NC(=O)N3CCN(c4ccccn4)CC3)cc2s1	9%	1%	5.7	-5%
30	COc1cccc(C(=O)N2CCN(C(=O)c3cccc4ccccc34)CC2)c1OC	15%	7%	6.7	0%

entry	ClpP mod	CtBP-E1A inh	TRPV1 PAM
21	-4.6%	-7	2
22	0.7%	/	-48
23	-14%	3	-12
24	/	4	-4
25	-0.6%	-20	5
26	2.0%	/	0
27	-0.8%	/	19
28	-3.1%	/	?
29	-22%	0	3
30	-1.9%	3	-2

Later entries.
entry	structure	Sfp inh	gsp agonist	Menin-MLL FL inh	gsp antagonist
31	COc1ccc([C@H]2C[C@@H](n3cc(-c4ccc(F)cc4)nn3)[C@H](O)CN2C(=O)C2CCCCC2)cc1	/	-50%[inhibitor]	/	/
32	CC1CCCCN1C(=O)Cc1ccc(F)cc1 (stereo not drawn)	12%	-13%	0.3	-9%
33	Cc1[nH]n(-c2ccccc2)c(=O)c1N=Nc1ccccc1C(=O)O	-15%	-14%	-4.8	?
34	O=C(C1CCCCN1S(=O)(=O)c1ccccc1[N+](=O)[O-])N1CCOCC1 (stereo not drawn)	21%	2%[15.4 µM]	0.0	-5%
35	Cn1ccnc1SCC(=O)Nc1cccc(C(F)(F)F)c1	3%	-55%[inhibitor]	0.5	9%
36	C=CC[C@@H](CC(=O)N(CCO)Cc1ccccc1)C(=O)NCCOC(=O)[C@@H](CC=C)Cc1ccc(F)cc1	/	/	/	-14%
37	Cn1c(=O)n(C)c2cc(NC(=O)c3ccc(F)cc3)ccc21	11%	1%	1.6	2%
38	CC1=C(C#N)C(c2ccccc2O)C(C#N)=C(C)N1	-7%	-2%	0.8	4%
39	CC(C)NC(=O)Nc1ccc2c(c1)C(=O)N([C@H](C)CO)C[C@H](C)[C@@H](CN(C)S(=O)(=O)c1ccccc1)O2	/	?	/	10%
40	CC(C)CNC(=O)Nc1ccccc1F	18%	-7%	0.0	-1%

entry	ClpP mod	CtBP-E1A inh	TRPV1 PAM
31	1.8%	0	/
32	0.3%	3	9
33	-1.2%	/	0
34	/	8	12
35	0.4%	8	2
36	-0.4%	-1	/
37	-1.6%	?	-15
38	/	5	-2
39	-0.8%	-7	/
40	0.6%	/	0

Continued:
entry	structure	Sfp inh	gsp agonist	Menin-MLL FL inh	gsp antagonist
41	CCOC(=O)C(O)(CC(=O)c1ccc(OC)cc1)C(F)(F)F (stereo not drawn)	13%	-12%	1.2	1%
42	Cc1nnc2c3cnn(-c4ccc(Cl)cc4)c3ncn12	15%	/	-0.2	/
43	Cc1cccc(NC(=O)c2cc(-c3ccc(C)s3)nc3ccccc23)n1	-24%	-4%	3.5	-18%
44	CCN1C(=O)CC(N2CCN(c3ccc(OC)cc3)CC2)C1=O (stereo not drawn)	-10%	-16%	0.8	10%
45	C=C(C)CN(CC)C(=O)CN1C(=O)NC2(CCc3ccccc32)C1=O (stereo not drawn)	-5%	-29%	/	-10%
46	CC1=CC(C)[C@H](/C=N/n2c(=O)[nH]c3c([nH]c4ccc(Br)cc43)c2=O)C(C)C1 (stereo partly drawn)	19%	-13%[15.4 µM]	1.4	1%
47	COC(=O)c1[nH]c2ccc(Br)cc2c1NC(=O)C(C)N1CCN(C2CCCCC2)CC1 (stereo not drawn)	7%	4%	6.1	-8%
48	Cc1ccc(CNC(=O)CCS(=O)(=O)c2ccc(Cl)cc2)cc1	16%	-55%[inhibitor]	4.4	7%
49	O=C(c1cccn2c(=O)c3cc(Br)ccc3nc12)N1CCN(c2ccccn2)CC1	0%	8%	1.3	4%

entry	ClpP mod	CtBP-E1A inh	TRPV1 PAM
41	-1.3%	0	-2
42	/	/	3
43	16µM*	17	27
44	1.1%	1	1
45	-2.3%	0	7
46	0.6%	-1	3
47	?	-1	-12
48	1.2%	1	-18
49	-8.6%	-6	-28
